# RecA intein inh = blocks M. tuberculosis RecA intein splicing | P9WHJ3 | cell-free RecA intein splicing, fluorescence | inhibition, %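 (about 9 µM by stock and volumes)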 | hit rate 0.75% among 290,000 | AID 2221; in the data active = inhibition above about 30%; inconclusive = no clear call, values can overlap the other calls;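 also: 0% = vehicle wells and 100% = reference inhibitor control wells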
# Target sequence (P9WHJ3 whole entry, looked up): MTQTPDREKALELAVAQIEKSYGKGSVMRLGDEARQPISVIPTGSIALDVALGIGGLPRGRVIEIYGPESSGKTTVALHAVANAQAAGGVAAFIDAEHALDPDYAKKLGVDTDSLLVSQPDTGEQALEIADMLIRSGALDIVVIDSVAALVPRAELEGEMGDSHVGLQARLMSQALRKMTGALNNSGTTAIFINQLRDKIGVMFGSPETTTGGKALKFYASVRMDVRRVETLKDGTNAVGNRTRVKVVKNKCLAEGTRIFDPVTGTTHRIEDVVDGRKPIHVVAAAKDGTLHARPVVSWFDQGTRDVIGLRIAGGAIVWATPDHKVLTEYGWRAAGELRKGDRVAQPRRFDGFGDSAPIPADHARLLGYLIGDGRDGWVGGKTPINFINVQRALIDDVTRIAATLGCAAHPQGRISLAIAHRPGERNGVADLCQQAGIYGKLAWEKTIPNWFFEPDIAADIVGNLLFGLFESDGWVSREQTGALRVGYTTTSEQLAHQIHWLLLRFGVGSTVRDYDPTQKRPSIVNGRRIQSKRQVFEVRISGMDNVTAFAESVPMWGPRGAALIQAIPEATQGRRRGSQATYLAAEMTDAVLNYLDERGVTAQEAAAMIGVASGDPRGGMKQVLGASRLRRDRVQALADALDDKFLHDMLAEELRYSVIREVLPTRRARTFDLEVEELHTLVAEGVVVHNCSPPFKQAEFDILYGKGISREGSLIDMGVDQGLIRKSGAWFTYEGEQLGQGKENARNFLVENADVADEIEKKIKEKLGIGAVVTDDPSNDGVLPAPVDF
# YopH PTP inh = blocks Yersinia enterocolitica YopH tyrosine phosphatase. fluorescence Ex485/Em525. inhibition, %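 (about 10 µM by stock and volumes)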. hit rate 0.16% among 140,000;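 active = inhibition of 50% or more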;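 also: controls were vehicle for no effect and minimum signal wells for full effect; inactives centre near -20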
# Mtb H37Rv = M. tuberculosis H37Rv growth inhibitors, H37Rv strain (AID 1626) | one-dose inhibition, % at 10 µM; IC50 in µM for titrated hits | hit rate 0.95% among 220,000 | M. tuberculosis H37Rv growth inhibition; higher % means a stronger effect;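 active = confirmed in a dose series; inconclusive = inhibition above 80% but not taken into the dose series; inactive = below 80% or under 30% at every dose of the series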;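 also: bacteria incubated seven days before Alamar blue readout; 0% = bacteria only wells and 100% = bacteria with antibiotic wells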
# Mtb bLac sens = beta-lactam sensitization of Mtb H37Rv | M. tuberculosis H37Rv growth with meropenem, percent inhibition; hits of this screen are not shown here | inhibition, % at 25 µM | AID 434955 | hit rate 0.27% among 330,000;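 active = about 74% or more and at least 40 points above the plate without the antibiotic, then above 30% in a dose series; inconclusive = first-round hits that could not be retested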;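 also: growth measured after seven days incubation then overnight dye step; 0% = bacteria only wells and 100% = bacteria with antibiotic; twin plates without the antibiotic show which effects depend on it; some results filed as inactive read as strong as hits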
# Arbovirus inh = antivirals against arbovirus infection | arbovirus infection cell-based antiviral screen | hit rate 0.37% among 200,000 | inhibition, % at 10 µM;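 active = inhibition from about 30%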;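 also: bluetongue infection of BSR cells; cell survival read as ATP light after 72 h; 0% = infected wells without compound and 100% = uninfected wells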
# Arbovirus inh repeat = second read-out of Arbovirus inh, no call of its own (marks repeat the call); inhibition, %; measured here: 10K subset replicate screen; many hits read low in the repeat;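 first of two repeat runs on a subset; 0% = infected and 100% = uninfected wells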
# * = called active by the depositor; ? = inconclusive; . = not tested or not shown. The list is partial (hit frequency here may not be typical).
SMILES,RecA intein inh,YopH PTP inh,Mtb H37Rv,Mtb bLac sens,Arbovirus inh,others
COCCNS(=O)(=O)c1ccc(C)c(C)c1C,.,.,5%,-2,6,
COc1ccc(OCc2nnc(SCC(=O)c3c(N)n(C)c(=O)n(C)c3=O)n2-c2ccccc2F)cc1,-0.2,.,6%,8,-2,
O=C(O)c1ccc2c(c1)NC(=O)C(N1CCCC1)S2 (stereo not drawn),0.6,4,0%,-5,1,
CC(=O)Nc1nc(S(=O)(=O)c2ccc(C)cc2)c(Cl)s1,1.3,-1,-3%,-5,8,
COc1cccc(CNC(=O)C2CCCN(S(=O)(=O)c3cccc4nonc34)C2)c1 (stereo not drawn),3.1,-16,-3%,6,-1,
CC1Cc2ccccc2N1C(=O)COC(=O)C1(c2ccccc2F)CCCC1 (stereo not drawn),11,-8,14%,1,21,
COc1ccc(/C=N/NC(=O)c2ccc(O)cc2O)cc1CSc1ccccn1,3.9,-19,2%,0,-5,
CN1CCc2c(OCC(=O)N3N=C(c4cccs4)CC3c3ccc(F)cc3)cccc2C1=O (stereo not drawn),26,-12,.,89,-7,
Cc1ccc(-n2ncc3c(=O)n(CC(=O)N(C(C)C)C(C)C)cnc32)cc1,-2.2,.,.,-3,.,
CCOc1cc(N2CCOCC2)c(OCC)cc1NC(=O)c1cc(-c2ccco2)nc2ccccc12,.,-35,7%,-5,8,Arbovirus inh repeat=6
CCc1cc2c(=O)[nH]c(Cc3ccc(Cl)cc3)nc2s1,0.0,1,6%,-7,0,
COc1ccc(NS(=O)(=O)c2ccc(OC)c(N(C)S(=O)(=O)c3ccc(Cl)cc3)c2)cc1,19,-9,11%,6,-17,

# Looked up one by one from the list above (3):
SMILES,RecA intein inh,YopH PTP inh,Mtb H37Rv,Mtb bLac sens,Arbovirus inh,others
Cc1ccc(-n2ncc3c(=O)n(CC(=O)N(C(C)C)C(C)C)cnc32)cc1,-2.2,.,.,-3,.,
COCCNS(=O)(=O)c1ccc(C)c(C)c1C,.,.,5%,-2,6,
COc1ccc(OCc2nnc(SCC(=O)c3c(N)n(C)c(=O)n(C)c3=O)n2-c2ccccc2F)cc1,-0.2,.,6%,8,-2,

# (cont.)
SMILES,RecA intein inh,YopH PTP inh,Mtb H37Rv,Mtb bLac sens,Arbovirus inh,others
Cn1c(N)c(C(=O)COC(=O)c2nc(Cl)ccc2Cl)c(=O)n(C)c1=O,-1.3,.,-10%,-11,4,
CCCC1CCC(c2nc(-c3cccnc3)no2)CC1 (stereo not drawn),3.9,-47,1%,12,-7,
CCc1ccccc1N(CC(=O)NCc1ccc(OC)cc1)C(=O)CCC(=O)Nc1ccccn1,2.8,.,.,0,.,
COc1ccccc1CN=Cc1[nH]c2ccc(Br)c(Cl)c2c1O,8.6,5,2%,10,-1,
O=C(Nc1ccccc1)OCCN1CCN(Cc2ccccc2)CCC1=O,-1.4,-12,-4%,-11,10,
Cc1cc(NC(=O)c2cc(C3CC3)on2)no1,-3.2,.,3%,3,0,
COC1=CCC2([N+](=O)[O-])CN(CCO)CC1([N+](=O)[O-])C2 (stereo not drawn),2.5,-21,-4%,-2,10,
O=C(O)/C=C/C(=O)N1CCN(c2ccccc2F)CC1,-1.2,-32,-2%,2,2,
CCCCOP(=O)(c1ccc(N(C)C)cc1)C(O)c1c(Cl)cccc1Cl (stereo not drawn),4.8,.,.,?,.,
O=C(Cn1c2[n+](c3ccc(C(F)(F)F)cc31)CCCCC2)Nc1ccccc1,0.0,-17,11%,0,6,
CC(C)n1c(/N=C/c2c[nH]c3ccccc23)nc2ccccc21,13,28,-3%,-9,0,
COc1ccc(NC2=NCC(=O)N2c2ccccc2)c(OC)c1,-4.0,-32,-6%,-11,0,Arbovirus inh repeat=3

# Some of these compounds in order of length of the SMILES, ascending.
SMILES,RecA intein inh,YopH PTP inh,Mtb H37Rv,Mtb bLac sens,Arbovirus inh,others
Cc1cc(NC(=O)c2cc(C3CC3)on2)no1,-3.2,.,3%,3,0,
CCCC1CCC(c2nc(-c3cccnc3)no2)CC1 (stereo not drawn),3.9,-47,1%,12,-7,
O=C(O)/C=C/C(=O)N1CCN(c2ccccc2F)CC1,-1.2,-32,-2%,2,2,
COc1ccc(NC2=NCC(=O)N2c2ccccc2)c(OC)c1,-4.0,-32,-6%,-11,0,Arbovirus inh repeat=3
COc1ccccc1CN=Cc1[nH]c2ccc(Br)c(Cl)c2c1O,8.6,5,2%,10,-1,
CC(C)n1c(/N=C/c2c[nH]c3ccccc23)nc2ccccc21,13,28,-3%,-9,0,
CC1Cc2ccccc2N1C(=O)COC(=O)C1(c2ccccc2F)CCCC1 (stereo not drawn),11,-8,14%,1,21,
COc1ccc(/C=N/NC(=O)c2ccc(O)cc2O)cc1CSc1ccccn1,3.9,-19,2%,0,-5,
Cn1c(N)c(C(=O)COC(=O)c2nc(Cl)ccc2Cl)c(=O)n(C)c1=O,-1.3,.,-10%,-11,4,
O=C(Cn1c2[n+](c3ccc(C(F)(F)F)cc31)CCCCC2)Nc1ccccc1,0.0,-17,11%,0,6,
CCc1ccccc1N(CC(=O)NCc1ccc(OC)cc1)C(=O)CCC(=O)Nc1ccccn1,2.8,.,.,0,.,
CCOc1cc(N2CCOCC2)c(OCC)cc1NC(=O)c1cc(-c2ccco2)nc2ccccc12,.,-35,7%,-5,8,Arbovirus inh repeat=6
COc1ccc(NS(=O)(=O)c2ccc(OC)c(N(C)S(=O)(=O)c3ccc(Cl)cc3)c2)cc1,19,-9,11%,6,-17,

# New compounds follow
SMILES,RecA intein inh,YopH PTP inh,Mtb H37Rv,Mtb bLac sens,Arbovirus inh,others
O=C(c1ccco1)N1N=C(c2cccs2)CC1c1cc([N+](=O)[O-])ccc1O (stereo not drawn),5.6,.,.,-16,.,
O=C(COc1ccc2ccc(=O)oc2c1)N1CCc2ccccc21,-3.2,.,-3%,-3,3,
CC(=O)c1ccc(S(=O)(=O)Nc2cccc(S(=O)(=O)NC3=NCCC3)c2)cc1,-1.4,-14,0%,?,4,
Cc1cc(NC(=O)CSc2nnc(-c3ccc([N+](=O)[O-])cc3)o2)no1,-2.7,.,.,96,.,
CC(C)CN(C(=O)COC(=O)c1cccc2ccccc12)c1c(N)n(Cc2ccccc2)c(=O)[nH]c1=O,-0.9,.,.,-2,.,
CCN(CC(=O)Nc1c(F)cccc1F)C(=O)CCNS(=O)(=O)c1ccc(C)c(C)c1,1.1,.,.,-9,.,
c1ccc2c(NC3CCCC3)nnc(NC3CCCC3)c2c1,3.9,-2,11%,-6,-2,
CCOC(=O)c1nnn(CC(=O)N2N=C(c3ccc(Cl)cc3)CC2c2ccc(OC)cc2)c1C(=O)OCC (stereo not drawn),1.0,-38,0%,-7,-3,
O=C(CCCc1nc2ccccc2s1)Nc1nccs1,1.9,-27,-5%,-11,-1,
O=C1C(Cl)=C(Nc2cccc(O)c2)C(=O)N1Cc1ccccc1,9.7,.,3%,-2,-2,
O=C(O)c1ccc(-c2nc(-c3ccccc3Cl)cs2)cc1,0.3,.,1%,-2,7,
COc1ccc(N2CCOCC2)c(NC(=O)c2ccc3c(c2)OCO3)c1,1.8,.,.,-4,.,
COc1ccccc1-c1cnn2c(NCCc3ccccc3)cc(C)nc12,5.0,.,.,4,.,
O=C(COc1ccc(Cl)cc1)N1CCCCCCC1,1.2,.,.,-4,.,
O=C(Nc1cccc(N=Cc2cc(Br)cc(Br)c2O)c1)c1ccco1,-1.7,-29,3%,6,-24,
CCOC(=O)c1ccc(NC(=O)C2(c3ccc(OC)cc3)CCOCC2)cc1,1.5,3,13%,37,2,
CCC1(c2ccc(F)cc2)NC(=O)N(CC(=O)N2CCN(S(=O)(=O)c3ccc(C)cc3)CC2)C1=O (stereo not drawn),-7.8,.,.,1,.,
CS(=O)(=O)N(CC(=O)NCc1ccccc1Cl)Cc1ccccc1,-1.0,11,10%,-3,3,
CCNC(=O)NC(=O)c1csc([N+](=O)[O-])c1,-1.5,.,0%,-1,.,
COc1ccc(CCN2CCCC(CN(C)C(=O)c3ccoc3C)C2)cc1 (stereo not drawn),-0.3,.,.,-3,.,
Cc1ccc(C(=O)c2cc(Br)ccc2N)cc1,-0.1,.,4%,11,2,
C=CCOc1ccc2ccccc2c1CNCCCN1CCOCC1,-2.3,-41,.,11,0,
CCN(c1ccccc1)S(=O)(=O)c1cccc(C(=O)N2CCN(S(=O)(=O)c3ccccc3)CC2)c1,-2.2,.,.,0,.,
O=c1oc2cc(OCc3ccc(F)cc3F)ccc2cc1-c1ccc2ccccc2n1,0.3,-14,-6%,6,11,
CC(=O)N1N=C(c2cccc(NS(=O)(=O)c3ccc(C)cc3)c2)CC1c1ccco1 (stereo not drawn),-3.7,.,.,7,.,
CC1(C(=O)N2CCC(CC3CC(c4cccc(Br)c4)=NO3)(C(=O)NCC3CCCCC3)CC2)CC1 (stereo not drawn),4.1,.,.,-5,.,
O=C(Cn1c(NCCO)nc2ccccc21)NCCc1ccccc1,.,-27,-19%,0,6,
Nc1ccccc1C(O)(Cc1ccccc1)c1ccccc1 (stereo not drawn),12,.,.,0,.,
O=C(NCCn1ccc2ccccc21)c1cccc([N+](=O)[O-])c1,-0.3,.,6%,-5,-13,
CCCc1cc(=O)oc2c(C)c(OCC(=O)N3CCC(C(N)=O)CC3)ccc12,-0.1,.,.,0,.,
CCOC(=O)CCN,-1.8,.,.,-7,.,
CC(=O)CSc1nc2ccc(Nc3nc(N4CCOCC4)nc(N4CCOCC4)n3)cc2s1,2.2,-5,4%,94,-21,Arbovirus inh repeat=-13
O=C(COc1ccc(C(=O)Nc2ccc(Cl)cc2)cc1)NCc1ccccc1,-1.2,-21,6%,7,-27,
CCCCN1C(=O)C(C2c3ccccc3C(=O)N2Cc2ccccc2)C(=O)NC1=S (stereo not drawn),5.9,-20,-6%,5,-1,
COc1cccc(Nc2nc(-c3cccnc3)cs2)c1,1.6,.,.,6,.,
COc1cc(CNc2ccc3c(c2)CCC3)cc(OC)c1O,-6.1,-2,46µM*,98,2,
Cc1nnc(-c2cnn(C)c2N)n1CCCN1CCOCC1,-2.1,.,4%,-10,4,
CCOc1ccc2[nH]c(=O)c(CN(Cc3ccc(F)cc3)C(=O)N3CCCC3)cc2c1,-1.0,-1,5%,7,7,
CCS(=O)(=O)N1CCC(C(=O)N2CCc3ccccc3C2)CC1,3.0,-32,.,-5,-1,
CC(=O)N1CCC(N(CCCOC(C)C)S(=O)(=O)c2ccc([N+](=O)[O-])cc2)CC1,-2.0,.,.,-1,.,
Cn1c(=O)n(CCc2ccccc2)c(=O)c2c1nc1n2CCCN1Cc1ccccc1,0.2,-7,17%,3,-2,
CCS(=O)(=O)NC(C)c1nnc2n1-c1ccc(Br)cc1C(c1ccccc1Cl)=NC2 (stereo not drawn),1.1,.,.,-16,.,
O=C(NNc1ccccc1)/C(=C\c1cccnc1)NC(=O)c1ccccc1,3.0,.,78%,74,.,
COc1ccc(C2CC(c3ccccc3)=NN2C(=O)COC(=O)c2cccnc2)cc1 (stereo not drawn),1.6,-1,13%,1,15,
O=C(N/N=C/c1ccc(COc2ccc(Br)cc2)o1)c1ccco1,-1.6,-27,13%,4,-2,
CC(C)c1ccc(NC(=O)CCNS(=O)(=O)c2cc(Br)cnc2N)cc1,-3.6,.,.,-2,.,
CCOP(=O)(OCC)C(NC(=O)c1ccc(Cl)cc1)=C(Cl)Cl,2.8,-16,1%,6,2,
Cc1c(C)c(C)c(S(=O)(=O)N2CCSCC2)c(C)c1C,-0.6,.,-3%,10,.,

# Screening data from PubChem.
